NPYLR7 agonist: activates Aedes aegypti NPYLR7 receptor. hit rate 0.15% among 270,000. HEK293T NPYLR7/Galpha15, GCaMP6s calcium fluorescence. activation, % at 10 µM; in the data active = activation above about 40%;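 also: 0% = vehicle and 100% = reference agonist at the receptor; some compounds past the cut are filed as inactive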
NPYLR7 agonist max-min: further read-out of NPYLR7 agonist, marked with its call; activation, %; measured here: Max-Min RFU normalised activation; some inactives read as strong as hits;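 span of the calcium signal over five minutes; 0% = vehicle and 100% = native peptide agonist; compound fluorescence can raise it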
An asterisk follows results filed as active; & = joins results of further samples.

no.	molecule	NPYLR7 agonist max-min	NPYLR7 agonist
1	CC(C)(C)n1ncc2c(=O)n(NC(=O)c3ccc(S(=O)(=O)N4CCCC4)cc3)cnc21	-3.6	1.5
2	CCN(CC)C(=O)/C(NC(=O)c1ccccc1)=C(/Sc1ccccn1)c1ccccc1	2.1	8.6
3	CC(C(=O)NCc1ccco1)n1c(=O)n(Cc2ccccc2)c(=O)c2ccc(Cl)cc21 (stereo not given)	3.6	-0.7
4	COc1ccc(CCN(C)C2CCCN(Cc3nc4ccc(F)cc4[nH]3)C2)cc1OC (stereo not given)	7.4	7.4
5	CCOC(=O)CN(C(=O)COc1ccccc1)[C@@H]1C[C@@H]2CO[C@H](C(C)C)C[C@@H]2C1	13.4	16.6
6	COc1cccc(NC(=O)C2(C)CCN2Cc2ccc(SC)cc2)c1 (stereo not given)	0.0	0.7
7	COc1ccc2c(c1)OC[C@@H](Cc1ccc(OC)c(OC)c1)[C@@H]2O	-17.1	-12.7
8	Cc1nc(-c2ccsc2)ccc1C(=O)Nc1ncn[nH]1	3.8	1.0
9	CC(C)C(=O)N1CCC1(C)C(=O)N(C)Cc1cccc2ccccc12 (stereo not given)	1.3	4.9
10	Cc1c(Br)cnn1CC(=O)O	-0.3	1.6
11	NC(=O)CN1CC2N(C(=O)c3cccs3)C3CCC2(CC3)OC1=O (stereo not given)	5.4	5.6
12	CC(=O)Nc1ccc(N2C(=O)CSC2c2ccc(C(C)C)cc2)cc1 (stereo not given)	-7.7	-2.9
13	O=c1ccc(-c2ccccc2)nn1CCNS(=O)(=O)c1ccc(Oc2ccccc2)cc1	0.2	-0.5
14	O=C(NCCNC(=O)C1CCN(C(=O)c2ccccc2Br)CC1)c1ccccc1	35.0	23.5
15	COc1c(C(=O)Nc2n[nH]c(C)n2)sc(C)c1Br	6.5	0.4
16	CN1CC2(CCCN(C(=O)c3cc(-c4ccccc4O)n[nH]3)CC2)OC1=O (stereo not given)	2.5	2.0
17	COc1ccc(Cn2ccnc2CN(CCN2CCOCC2)C(=O)CC(C)C)cc1	7.2	6.8
18	O=[N+]([O-])c1ccc(CN2CCCn3cccc3C2c2ccccc2Cl)cc1 (stereo not given)	25.0	20.4
19	Cc1cn2c3c(=O)[nH]c(=O)n(C)c3nc2n1CCCNc1ccc(Oc2ccccc2)cc1	19.9	17.2
20	COCCn1c(=O)c2c(nc3n(-c4ccc(N(C)C)cc4)c(C)cn23)n(C)c1=O	-0.6	2.9
21	O=C1Nc2cc3c(cc2/C1=N\OCc1ccccc1)OCCO3	10.9	13.0
22	Cc1ccc(C2(C)NC(=O)N(CC(O)COCc3ccco3)C2=O)cc1 (stereo not given)	10.3	-1.1
23	CC1CCN(S(=O)(=O)N2CCc3sccc3C2C)CC1 (stereo not given)	4.2	8.2
24	CCCCC(=O)N(C)c1c(C)nc2ccc(C(=O)N3CCCCC3)cn12	-7.3	4.3
25	CC(C)CNC(=O)C(C)Nc1ccc(F)cc1 (stereo not given)	-3.6	-0.8
26	Nc1nnc(SCc2ccccc2C(F)(F)F)s1	7.3	5.4
27	COc1ccccc1C(=O)N(CC(=O)N1CCc2sccc2C1COc1ccc(C(C)C)cc1)C(C)(C)C (stereo not given)	4.6	-1.1
28	CC(C)C(C)NC(=O)Cn1cnc2c1c(=O)n(C)c(=O)n2C (stereo not given)	-3.1	-2.5
29	C=CCn1c(N2CCN(Cc3cccc(C)c3)CC2)nc2c1c(=O)[nH]c(=O)n2C	-11.2	-8.3
30	CCCCN1CCN(Cc2nc(-c3ccco3)oc2C)CC1	-2.4	-1.6
31	O=C(c1cc2cc(Br)ccc2oc1=O)N1CCN(c2ccc(Cl)cc2)CC1	2.5	5.7
32	O=C1CCSc2ccc(Cl)cc21	7.3	1.5
33	NC(=O)C(OC(=O)c1c2ccccc2cc2ccccc12)c1ccccc1 (stereo not given)	16.5	-0.6
34	Cc1cc2c(c(=O)n1CCCn1ccnc1)C(c1ccccc1)C(C#N)C(=N)O2 (stereo not given)	-0.2	-4.1
35	CCCn1c(=O)c(C(=O)N2CCCC2)nn(-c2ccc(Cl)cc2)c1=O	19.4	5.5
36	O=S(=O)(NCCCn1cccn1)c1ccccc1C(F)(F)F	8.8	14.3
37	O=C(Nc1ccccc1Cl)C(=O)N1CCC2(CC1)C(=O)Nc1ccccc12	6.1	6.6
38	COc1cccc(C2CCCN2CC(=O)Nc2ccccc2NC(C)=O)c1 (stereo not given)	6.3	7.5
39	COc1ccccc1C(=O)N1CCN(Cc2nc(-c3ccoc3)oc2C)CC1	-0.5	3.4
40	CC(CNC(=O)c1nn(-c2ccccc2)cc1O)Cn1cccn1 (stereo not given)	9.0	-1.9
41	COCC1CCN(Cc2nc(C(c3ccccc3)c3ccccc3)no2)CC1	2.9&16.3	2.7&14.1
42	CCOc1ccc(-c2nc(C(N)=O)c3[nH]c(=O)n(-c4ccc5c(c4)OCO5)c3n2)cc1	-6.9	-6.3
43	CC(C)Oc1nc(-c2cccc(F)c2)n(-c2ccc(NC(=O)c3ccc([N+](=O)[O-])cc3Cl)cc2)n1	-4.1	-3.2
44	Cc1noc(C)c1CC(=O)NCCC12CC3CC(CC(C3)C1)C2	0.7	4.7
45	CCNC(=O)OC1CCN(C(=O)c2cc3ccccc3s2)CC(=O)N(C)c2ccccc21 (stereo not given)	11.0	1.8
46	O=C(CCSc1ccc(F)cc1)Nc1nccs1	6.2	6.4
47	Cc1ccc(NC(=O)C2(C)CCN(C(C)C)C2)cc1C (stereo not given)	-3.4	-3.4
48	CC(NC(=O)CCNC(=O)c1ccsc1)c1ccc(Cl)c(Cl)c1 (stereo not given)	-6.2	-5.1
49	CN(Cc1ccc(Cl)s1)C(=O)COc1ccccc1C(N)=O	5.1	8.0
50	c1ccc(CN2C[C@H](Oc3ccccn3)[C@H]3C[C@@H]2CC[C@H]3N2CCOCC2)nc1	35.6	27.7
51	Cc1ccccc1C(NS(C)(=O)=O)c1ccccc1 (stereo not given)	2.1	-1.8
52	COc1cccc(CC2(CO)CCCN(c3ncccn3)C2)c1 (stereo not given)	2.0	0.6
53	CC(C)(C)CC(C)(C)Nc1c(-c2ccc(C(F)(F)F)cc2)nc2ccc(Cl)cn12	1.1	-4.3
54	CCN(CC)c1nc(C)nc2ccccc12	28.2	15.6
55	O=S(=O)(NC1CCCC1)c1ccccc1C(F)(F)F	1.7	6.4
56	CNC(=O)C1CCC(Cn2c(=O)c3sccc3n(Cc3cccc(C)c3)c2=O)CC1 (stereo not given)	-2.5	4.0
57	CCN1CCN(c2nc3c(c(=O)[nH]c(=O)n3C)n2Cc2c(Cl)cccc2Cl)CC1	-6.6	-2.9
58	CC(=O)NCCNC(=O)Cn1nnc(-c2ccccc2)c1COc1ccc2ccccc2c1	-2.2	-2.3
59	Cn1c(-c2ccncc2)nn(CN2CCN(c3ccccc3)CC2)c1=S	2.1	8.1
60	Cn1c(=O)[nH]c2nnc(-c3cccnc3)nc2c1=O	-14.1	-5.5

Pulled one by one from the entries so far, 5 records:
no.	molecule	NPYLR7 agonist max-min	NPYLR7 agonist
59	Cn1c(-c2ccncc2)nn(CN2CCN(c3ccccc3)CC2)c1=S	2.1	8.1
50	c1ccc(CN2C[C@H](Oc3ccccn3)[C@H]3C[C@@H]2CC[C@H]3N2CCOCC2)nc1	35.6	27.7
53	CC(C)(C)CC(C)(C)Nc1c(-c2ccc(C(F)(F)F)cc2)nc2ccc(Cl)cn12	1.1	-4.3
56	CNC(=O)C1CCC(Cn2c(=O)c3sccc3n(Cc3cccc(C)c3)c2=O)CC1 (stereo not given)	-2.5	4.0
57	CCN1CCN(c2nc3c(c(=O)[nH]c(=O)n3C)n2Cc2c(Cl)cccc2Cl)CC1	-6.6	-2.9

Remaining list, next part
no.	molecule	NPYLR7 agonist max-min	NPYLR7 agonist
61	CC(=O)Nc1ccc(NC(=O)c2nnn(-c3cccc(C)c3)c2C)cc1	-8.5	-6.1
62	COc1nn(C)cc1C(=O)Nc1ccon1	1.1	2.7
63	COc1cc(OC)cc(N2C(=O)/C(=C\c3ccncc3)N(C)C2=S)c1	24.4	18.1
64	COc1ccc(OC)c(C2C(=C(O)c3ccc(F)cc3)C(=O)C(=O)N2CCN2CCOCC2)c1 (stereo not given)	13.4	6.0
65	CCc1ccc(-c2ccc(Nc3ccc(F)cc3F)nn2)cc1S(N)(=O)=O	-23.3	-16.0
66	COCC(=O)N1CCN(C(=O)NC(C)c2cc(C)cc(C)c2)CC1 (stereo not given)	3.6	5.5
67	Cc1cc(C(C)NC(=O)c2ccc(C#N)cc2)c(C)s1 (stereo not given)	-3.8	-0.9
68	CCCN(Cc1ccc(SC)cc1)C(=O)c1cc(C)[nH]n1	-0.3	1.3
69	CCc1nc2c(OCc3ccc(Cl)cc3Cl)cccn2c1N(C)C(=O)c1ccc(OC)cc1	-6.3	-3.1
70	CC(c1nccs1)N(C)C(=O)C1(c2ccccc2F)CC1 (stereo not given)	7.9	8.9
71	Cc1ccc(S(=O)(=O)NC2CCCC(C(F)(F)F)C2)cc1 (stereo not given)	-2.8	-1.5
72	Cc1nc2cc(OCc3cc(C(=O)N4CCc5ccccc5C4)no3)ccc2s1	8.1&3.8	7.3&4.9
73	CC1CCC2C(C1)NN(c1ccccc1)C2(C)C (stereo not given)	12.4	0.4
74	Cc1ccc(CN(CCc2ccccc2)C(=O)CN(C(=O)c2ccccc2F)C2CCCCC2)o1	1.3	-3.8
75	O=c1oc2ccccc2c(O)c1C=Nc1cccnc1	-18.8	-14.4
76	CC(Cc1ccsc1)N(C)S(=O)(=O)N(C)C (stereo not given)	-8.1	-6.0
77	CN1CCC=C(Cn2nccc2NC(=O)COc2ccccc2)C1	-0.2	8.7
78	CCOC(=O)CNC(=O)N1CCN(C(=O)CN2CCc3sccc3C2c2cccc(F)c2)CC1C (stereo not given)	2.6	9.5
79	CC(C)c1nccc(C(=O)N(C)CC2CCCCO2)n1 (stereo not given)	9.1	13.8
80	COc1cnc(-c2ccccc2OC)c(NC(=O)c2ccccc2)n1	-6.4	0.9
81	CCn1ncnc1C(C)NC(=O)Cc1cc(F)ccc1C (stereo not given)	1.6	4.4
82	COc1ccc(C2=N/C(=C\C=C\c3ccccc3OC)C(=O)O2)cc1	-4.2	1.8
83	Cc1ccccc1C(NC(=O)C1CCN(CC2CC2)CC1)c1ncccc1C (stereo not given)	2.9	4.1
84	CCCCC1CCC(c2noc(-c3ccc(-c4ccc(OC)cc4)cc3)n2)CC1 (stereo not given)	-10.2	-6.6

Next section; the last 3 above are carried over.
no.	molecule	NPYLR7 agonist max-min	NPYLR7 agonist
82	COc1ccc(C2=N/C(=C\C=C\c3ccccc3OC)C(=O)O2)cc1	-4.2	1.8
83	Cc1ccccc1C(NC(=O)C1CCN(CC2CC2)CC1)c1ncccc1C (stereo not given)	2.9	4.1
84	CCCCC1CCC(c2noc(-c3ccc(-c4ccc(OC)cc4)cc3)n2)CC1 (stereo not given)	-10.2	-6.6
85	Cc1cc(C)nc(NN=Cc2ccc3ncccc3c2)n1	-3.2	-2.5
86	Cc1cccc(-c2cn[nH]c2C2CCN(C(=O)c3cn4cccnc4n3)CC2)c1	-4.0	-3.3
87	C=CCN1C(=O)NC(=O)C(C2=NN(c3ccccc3)C(c3ccc4c(c3)OCO4)C2)C1=O (stereo not given)	51.5	-0.1
88	COc1ccc(-c2noc(-c3c(SC)nn(CC(=O)Nc4ccccc4C)c3N)n2)cc1	-4.4	0.4
89	CCOc1ccc(S(=O)(=O)N2CCCC(c3ncn[nH]3)C2)cc1OCC (stereo not given)	0.9	3.1
90	O=C1OC(c2cccc3ccccc23)=N/C1=C/C(Br)=C/c1ccccc1	-3.3	-0.8
91	CCOC(=O)c1ccc(NC(=O)CSc2cn(CC(=O)N3CCCCCC3)c3ccccc23)cc1	31.5	30.2
92	CCOC(=O)c1cc(-c2ccc(N3CCN(C(=O)c4cccc(OC)c4)CC3)cc2)n(-c2cccc(F)c2)n1	-6.6	-4.7
93	Cn1c(=O)c2[nH]c(N)nc2n(C)c1=O	5.9	0.8
94	CC(C)C(=O)Nc1c2c(nn1-c1ccccc1)CSC2	-5.1	-2.9
95	CC1ON=C(c2cccs2)N(Cc2cccc(F)c2)C1=O (stereo not given)	-0.7	2.6
96	OCC#CCSc1nnc(-c2cccc(Br)c2)o1	8.7	8.3

Values in list order from the list:
Nos. 77 to 81 in NPYLR7 agonist max-min read -0.2, 2.6, 9.1, -6.4, 1.6
Nos. 77 to 81 in NPYLR7 agonist read 8.7, 9.5, 13.8, 0.9, 4.4

Additional entries:
no.	molecule	NPYLR7 agonist max-min	NPYLR7 agonist
97	Cc1nonc1NC(=O)C(C)Sc1ccnc2cc(Cl)ccc12 (stereo not given)	7.6	1.6
98	NC(N)=NN=Cc1c(Cl)cccc1Cl	-2.4&-15.4	1.3&-2.5
99	CCOc1ccc(NC(=O)CSc2nnc(Cc3ccccc3)c(=O)[nH]2)cc1	0.1	2.2
100	COc1cc(C)ccc1OCC(=O)NN1C(C)CCCC1C (stereo not given)	2.7	4.9
101	CC(N)=C(C#N)C(=O)CSc1nnc(NC(C)C)s1	11.6	5.5
102	N#Cc1ccnc(N2CCN(C(=O)Cc3cnn(-c4ccccc4)c3)CC2)c1	-0.3	4.0
103	Cc1ccc(NC(=O)c2csc(CSc3nnc(Cc4ccccc4)n3-c3cccc(C(F)(F)F)c3)n2)cc1	22.0	5.7
104	CC12CC(c3ccccc3O1)C(C(=O)Nc1ccc3c(c1)OCO3)C(=O)N2CCO (stereo not given)	3.0	-4.4
105	CCCC1(CCC)NC(=O)N(CC(=O)Nc2ccc(F)c(F)c2)C1=O	-5.4	-4.8
106	CC1CCCN(Cc2nc3c(c(=O)n(C)c(=O)n3C)n2CCc2ccccc2)C1 (stereo not given)	0.5	5.2
107	Cc1ccc(C)c(Cn2c(N3CCN(Cc4ccc(F)cc4)CC3)nc3c2c(=O)[nH]c(=O)n3C)c1	2.8	5.3
108	O=C(c1cccs1)N1CCCC(OCc2ccc(OC(F)(F)F)cc2)C1 (stereo not given)	2.2	-1.9
109	Cn1c(=O)n(Cc2cccc(Cl)c2)c(=O)c2c1nc1n2CCN1c1ccccc1	26.6	0.8
110	O=C1CCN(C(=O)c2ccc(S(=O)(=O)c3ccccc3)cc2)C2CCCCC12 (stereo not given)	40.9	2.3

Not all compounds are listed; count on the stated rates, not on these rows.
